Screening results from PubChem.
RE007 growth inh: less growth of the S. pombe RE007 Vpr strain; S. pombe RE007 Vpr strain, BacTiter-Glo ATP luminescence, 24 h; control for the full effect not named in the record; Potency, µM (doses to about 92.2 µM), for inactives: at the highest dose activity change, negative = less growth; 0.21% of 360,000 active; AID 651644; active = well fitted falling curve with a large enough effect; inconclusive = small, poorly fitted or top-dose-only effect; inactive = no such curve, though single readings can be large or run the other way;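 further: on the % scale 0 is the no-effect control and ±100 the full control effect; nearly all actives have a fitted effect of over 50% in size; the assay follows cell death caused by Vpr and the record does not say whether a fall means rescue or toxicity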
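Fission yeast strain RE007, carrying one chromosomally integrated HIV-1 vpr copy, was seeded at OD 0.01 in PMG+AL medium with 23 nL pinned compound. After 24 h at 30 °C and 99% humidity, viability was read by BacTiter-Glo luminescence.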
Cruzain inh noDet: inhibitors of Trypanosoma cruzi cruzain without detergent | P25779 | purified cruzain, Z-FR-AMC fluorescence, no detergent | Potency, µM, without a hit: max response, negative = inhibition, most hits filed as inhibitors | 2.3% of 200,000 active | AID 1476;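 further: plate controls were enzyme without inhibitor for no effect and buffer without enzyme for full effect; nearly all actives have a fitted effect of over 40% in size; top concentration of the series not given in the record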
Target sequence (P25779 123-467 limits assumed): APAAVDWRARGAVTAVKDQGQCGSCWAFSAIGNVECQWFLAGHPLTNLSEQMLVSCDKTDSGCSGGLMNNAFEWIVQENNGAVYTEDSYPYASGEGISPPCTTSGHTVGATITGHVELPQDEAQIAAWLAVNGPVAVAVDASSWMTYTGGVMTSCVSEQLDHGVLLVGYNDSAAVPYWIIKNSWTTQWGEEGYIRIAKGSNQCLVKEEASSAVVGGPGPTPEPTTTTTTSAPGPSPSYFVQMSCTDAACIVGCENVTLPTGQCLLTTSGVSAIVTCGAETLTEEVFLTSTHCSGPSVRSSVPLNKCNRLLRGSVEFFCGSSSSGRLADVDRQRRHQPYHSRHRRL
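Purified cruzain at 1.5 nM, pre-incubated 15 min with compound at room temperature in 100 mM sodium acetate pH 5.5, 5 mM DTT, 0.00005% Triton X-100. Reaction started with 2 uM Z-FR-AMC; AMC fluorescence increase over 60 s gives rate.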
LASV entry inh: Lassa virus entry inhibition; Lassa virus pseudotype entry inhibition, cell reporter; control for the full effect not named in the record; 1.2% of 300,000 active; AID 540256; Potency, µM (top dose mostly 37.9 µM), inactives show at the top dose activity change, negative = inhibition, most hits filed as inhibitors; active means well fitted inhibition curve with a large enough effect; inconclusive means small, poorly fitted or top-dose-only effect, or effect the other way; inactive means flat fitted curve, though single readings scatter; tested in HEK293 cells; further: on the % scale 0 is the no-effect control and ±100 the full control effect; nearly all actives have a fitted effect of over 50% in size; luciferase read-out
Cruzain Triton: inhibitors of Trypanosoma cruzi cruzain with detergent; P25779; purified cruzain, Z-FR-AMC fluorescence, 0.01% Triton; 0.43% of 200,000 active; AID 1478; Potency, µM, for the others: max response, negative = inhibition, usual class: inhibitors;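 further: plate controls were neutral wells for no effect and buffer without enzyme for full effect; nearly all actives have a fitted effect of over 40% in size; top concentration of the series not given in the record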
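Compounds were screened in titration against cruzain (1.5 nM) with 0.01% Triton X-100 to counter colloidal aggregation. Activity was the AMC fluorescence increase over 60 s after adding 2 uM Z-FR-AMC at pH 5.5.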
SARS PLP yeast: blocks SARS-CoV papain-like protease in a yeast assay. S. cerevisiae expressing SARS-CoV PLpro, growth rescue; control for the full effect not named in the record. Potency, µM (top dose mostly 32.9 µM), without a hit: at the highest dose activity, positive = growth rescue. 0.19% of 330,000 active; active means well fitted rising curve with a large enough effect; inconclusive means small, poorly fitted or top-dose-only effect; inactive means no such curve, though single readings can be large or run the other way; further: 0% is about no effect; nearly all actives have a fitted effect of over 55% in size; growth read by luminescence after 48 h
Marburg entry inh: Marburg virus entry inhibition. 1.8% of 300,000 active. Marburg virus pseudotyped entry inhibition, cell reporter; control for the full effect not named in the record; about a third of the inactives were read at about 46 µM. Potency, µM (highest dose often 37.8 µM), without a hit: top-dose activity change, negative = inhibition, hits mostly inhibitors; active = well fitted inhibition curve with a large enough effect; inconclusive = small, poorly fitted or top-dose-only effect, or effect the other way; inactive = flat fitted curve, though single readings scatter; tested in HEK293 cells; about a fifth of its hits are not listed in these tables; further: on the % scale 0 is the no-effect control and ±100 the full control effect; luciferase read-out
StopGo reporter: lowers the luciferase signal of an FMDV 2A StopGo reporter | human cells with a luciferase reporter of 2A StopGo recoding; control for the full effect not named in the record | Potency, µM (top dose mostly 57.9 µM), for the others: at the top dose signal change, negative = less light | 1.2% of 410,000 active | AID 1159524; active = well fitted falling curve with a large enough effect; inconclusive = small, poorly fitted or top-dose-only effect; inactive = no such curve, though single readings can be large or run the other way; tested in HEK293T cells; further: on the % scale 0 is the no-effect control and ±100 the full control effect; nearly all actives have a fitted effect of over 45% in size; luciferase light after 4 h
NS1 function inh: influenza NS1 inhibition | S. cerevisiae slowed by influenza A NS1, growth recovery by OD600 | Potency, µM (titrated, usually from 46.1 µM), without a hit: at the top dose activity, positive = more growth | 0.4% of 270,000 active; active means well fitted rising curve with a large enough effect; inconclusive means small, poorly fitted or top-dose-only effect; inactive means no such curve, though single readings can be large or run the other way; further: nearly all actives have a fitted effect of over 50% in size
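Growth recovery, yeast-based: influenza A NS1 expressed in S. cerevisiae causes slow growth, and suppressors are detected by OD600. The parent strain without NS1 is used as positive control.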
Numbers without * were called inactive; ? = inconclusive; nt = no result given; & = joins results of further samples; [ ] = another dose, or the depositor's remark. Unless noted, the call rests on the fitted dose curve; in most records, active means well fitted curve in the direction sought with a large enough effect; inconclusive means small, poorly fitted or top-dose-only effect, or another doubt; inactive means no such curve, though single readings can be large; an effect the other way counts as inactive or inconclusive. Potency means the concentration at half of the fitted maximal effect. Not a hit list; overall some 4.7% were active at least once.

SMILES | RE007 growth inh | Cruzain inh noDet | LASV entry inh | Cruzain Triton | SARS PLP yeast | Marburg entry inh | StopGo reporter | NS1 function inh
CCOC(=O)C1C(=O)NC(C)C1c1ccccc1 (centres undefined) | -1% | -3% | 2% | -1.1% | 2% | 21% | -14% | 6%
Cc1ccc(NC(=O)CSc2nncc3ccccc23)cc1 | 7% | nt | 12% | nt | -2% | -13%[46.1 µM] | 0% | -10%
COc1ccccc1N1CCN(CCCCOc2cccc3ccccc23)CC1 | 1% | 8% | ? | -3.8% | -13% | ? | ? | -41%
COc1ccc(-c2c(C)oc3c(CN4CCCCC4C)c(O)ccc3c2=O)cc1OC (centres undefined) | 0% | -6% | nt | -4.2% | 8% | -1% | -28% | -6%
CCOC(=O)c1oc2nc(C)c3c(c2c1N)CC(C)(C)OC3 | -2% | 1% | -2% | -1.0% | 0% | -6% | -19% | -5%
Cc1ccc(NC(=O)Cn2nc(C)c3ccccc3c2=O)cc1F | 23% | -6% | 18% | -6.4% | -8% | 5% | -3% | -1%
O=C(c1ccccc1Cl)N1CCc2ccccc2C1 | -12% | 5% | 1% | -1.5% | 2% | 20% | 0% | -5%
CCCn1c(N)c(Sc2ccc([N+](=O)[O-])cc2)c(=O)n(CCC)c1=O | 3% | nt | -15% | nt | -2% | -15%[46.1 µM] | -16% | nt
O=C(COC(=O)/C=C/c1ccccc1Cl)NCC1CCCO1 (centres undefined) | -22% | nt | -4%[46.1 µM] | nt | -4% | 2%[46.1 µM] | 13% | nt
CC1=C(C(=O)OC2CCCCC2)C(c2ccccc2Br)NC(=O)N1 (centres undefined) | -1% | nt | nt | nt | 9% | nt | ? | 8%
O=C(NNC(=O)c1sccc1-n1cccc1)Nc1ccc(F)cc1 | 49% | nt | 16%[46.1 µM] | nt | -8% | 25%[46.1 µM] | -23% | nt
COc1ccc(N(CC(=O)Nc2cccc(C)c2C)S(=O)(=O)c2c(C)n[nH]c2C)cc1 | 0% | ? | -19% | -0.3% | -12% | 2% | -21% | -9%
COc1ccc(C(=O)c2cc(OC)c(OC)c(OC)c2)cc1OC | -10% | nt | -19% | nt | nt | ? | 6% | nt
CCc1nnc(NC(=O)CSc2nnc(C)n2-c2ccc(C)cc2)s1 | 12% | 11% | ? | 9.8% | 15% | -9% | -21% | 8%
CCN(CCCNC(=O)COc1cc(=O)n(CC)c2ccccc12)c1ccccc1 | 3% | ? | ? | -4.3% | 22% | ? | ? | -12%
CC(C)(C)NC(=O)CN1CCC(O)(c2ccccc2)CC1 | 2% | 9% | 2% | 2.8% | -2% | 3% | nt | -6%
O=C(COc1ccc(Cl)cc1)N1CCN(S(=O)(=O)c2ccccc2)CC1 | -3% | -2% | 0% | -4.1% | 7% | -3% | -8% | -6%
COc1ccc(N2CC(NC(=O)c3ccc(OC(C)C)cc3)CC2=O)cc1 (centres undefined) | nt | -6% | -5%[46.1 µM] | -1.1% | nt | nt | -8% | nt
COc1ccc(OC)c(S(=O)(=O)N2CCC(C(=O)N3CCOCC3)CC2)c1 | -10% | nt | 3%[46.1 µM] | nt | 0% | -2%[46.1 µM] | 0% | 2%
COc1ccc(C(=O)/C=C/c2cn(CC(O)CN(CC(C)C)CC(C)C)c3ccccc23)cc1 (centres undefined) | nt | -23% | -25%[46.1 µM] | -7.7% | nt | -1%[46.1 µM] | ? | nt
CCCn1c(=O)n(C)c(=O)c2c(SCc3cc(C(C)=O)ccc3OCC)nc(C3CC3)nc21 | 9% | nt | -10% | nt | nt | ? | -10% | nt
CCC(C)NC(=O)Cn1c(=O)n(-c2ccc(Cl)cc2)c(=O)c2c3c(sc21)CCCC3 (centres undefined) | nt | -13% | 15%[46.1 µM] | -1.0% | nt | 6%[46.1 µM] | -22% | nt
Cc1cccc(N(CC(=O)NC(C)(C)C)C(=O)CCC(=O)Nc2ccccn2)c1 | -3% | nt | 13% | nt | -2% | -2% | -4% | -8%
COc1ccc(C(=O)C2CCCN(Cc3cccn3-c3ccccn3)C2)c(C)c1 (centres undefined) | 3% | nt | ? | nt | -2% | ? | ? | -32%
COc1ccc2c(c1)C(=O)CC(c1ccccc1)O2 (centres undefined) | -9% | nt | -28%[46.1 µM] | nt | nt | ? | 25% | nt
Cc1cccc(NC(=O)COc2ccc3c(c2)CCC3)n1 | ? | nt | 12%[46.1 µM] | nt | -1% | -29% | 50%[activator] | nt
Cc1ccc(CN2CCN(Cc3ccc4cc(F)ccc4n3)CC2CCO)o1 (centres undefined) | 0% | nt | -11% | nt | 1% | 0%[46.1 µM] | -13% | 0%
CNc1cnn(-c2ccc(C)cc2)c(=O)c1Cl | 15% | 1% | -9% | 4.2% | ? | ? | 21% | 1%
CC(CNC(=O)C(=O)NC(C)CCc1ccccc1)Cc1ccccc1 (centres undefined) | 4% | -16% | ? | 5.6% | -4% | -9% | nt | -2%
CCOC(=O)c1cnn(-c2cc(C)cc(C)c2)c1N | -9% | nt | 1%[46.1 µM] | nt | -5% | 3%[46.1 µM] | 1% | nt
COc1ccc(/C(N)=N/OC(=O)CCc2ccccc2)cc1 | 80% | nt | 6%[46.1 µM] | nt | -2% | 0%[46.1 µM] | -4% | -1%
COC(=O)CN1C(=O)CSc2ccc(S(=O)(=O)Nc3ccc(C)c(Cl)c3)cc21 | nt | -4% | -12%[46.1 µM] | -12% | nt | nt | 43%[activator] | nt
CC1(C)CC(=O)C(C=NCC(N)=O)=C(O)C1 | 10% | 13% | -5% | -1.1% | -3% | 7% | -7% | 0%
O=C(CSc1nc(-c2ccccc2)cc(=O)[nH]1)Nc1ccccc1 | 8% | nt | nt | nt | 0% | nt | 6% | 8%
Nc1ccc(O)c2c1C(=O)c1ccccc1C2=O | ? | -14% | 8% | -12% | -33% | 34% | -24% | 3%
Cc1ccc(-c2ccc(=O)[nH]n2)cc1 | 12% | 1% | nt | -0.6% | -31% | nt | 1% | 2%
CCN(CC)c1ccc(/C=N/NC(=O)c2ccoc2C)c(O)c1 | -19% | nt | nt | nt | 15% | nt | -16% | 1%
CCOC(=O)c1c(S(=O)(=O)NCC(=O)Nc2ccccc2F)c(C)n(C)c1C | -6% | nt | nt | nt | 4% | nt | 21% | -4%
O=c1c2ccccc2oc2ccc(NCCCn3ccnc3)cc12 | ? | nt | nt | nt | -2% | nt | -21% | 8%
Cc1ccc(S(=O)(=O)Nc2n[nH]nc2C(=O)NC2CCCCC2)cc1 | -3% | nt | 0% | nt | 3% | 5%[46.1 µM] | 9% | nt
Cc1cc(C)nc(N2CCCC(C(=O)NCc3cccs3)C2)n1 (centres undefined) | -14% | -6% | 1% | -3.9% | -1% | -1% | 0% | -7%
O=C(c1cccc(C(F)(F)F)c1)N1CCc2c([nH]c3ccccc23)C1C(F)(F)F (centres undefined) | -19% | nt | -12%[46.1 µM] | nt | -4% | ? | -20% | 2%
Cc1ccc2c(c1)N(C(C)C(=O)NCCc1ccccc1)C(=O)CO2 (centres undefined) | 10% | -7% | 7% | 1.4% | -3% | 20% | 17% | -1%
Cc1ccc(C)c(NC(=O)/C(C#N)=C/c2ccc(Sc3nncn3C)c([N+](=O)[O-])c2)c1 | nt | ? | 16% | -7.6% | 5% | 2% | nt | ?
O=C(CN1c2cccc3cccc(c23)S1(=O)=O)NCc1ccc2c(c1)OCO2 | -9% | -15% | ? | -5.7% | 5% | -1% | -10% | 13%
O=C1CC(N2CCN(c3ccccc3)CC2)C(=O)N1c1ccc2c(c1)OCCO2 (centres undefined) | -5% | 7% | -3% | 0.2% | nt | 3%[46.1 µM] | -18% | 2%
CSCC[C@H](NC(=O)[C@@H]1Cc2ccccc2CN1)C(=O)Nc1ccc2c(c1)OCO2 | -5% | nt | ? | nt | -5% | 12%[46.1 µM] | 9% | 5%
CCc1cc(=O)oc2cc(OC(C)=O)cc(OC(C)=O)c12 | -10% | 5% | -5% | 4.0% | -11% | 2% | 0% | -98%
Cc1ccc(C(=O)NCC(=O)NCCCc2ccccc2)cc1 | -8% | nt | 17% | nt | -13% | 2%[46.1 µM] | 21% | 7%
COc1cc(/C=C/C(=O)OCC(=O)N2CCCc3ccccc32)ccc1O | ? | nt | -26% | nt | -1% | 1.3µM* | -10% | nt
O=C(Nc1ccc(Cl)cn1)c1ccc2ccccc2n1 | 9% | ? | ? | 3.0% | 0% | ? | 13% | -7%
O=C1NC(=S)S/C1=C\c1coc2ccc(O)cc2c1=O | 2% | nt | nt | nt | 0% | nt | 22% | 6%
O=C(COC(=O)CC1CC2CCC1C2)Nc1c(F)cccc1F (centres undefined) | -1% | nt | 9% | nt | 0% | 1%[46.1 µM] | -10% | -3%
CC(=O)Nc1ccc(S(=O)(=O)N(C)CC(=O)Nc2ccccc2N2CCCC2)cc1 | -28% | nt | -10% | nt | -5% | ? | -18% | nt
O=S(=O)(Cc1ccc(Cl)cc1)C1CCCCC1O (centres undefined) | 9% | nt | -13%[46.1 µM] | nt | 3% | -19%&-19%[46.1 µM] | -19% | 8%
COc1ccc(/C=N/NC(=O)CCc2ccccc2)cc1O | -2% | -2% | ? | 2.4% | 21% | ? | 10% | -24%
CC(=O)c1ccc(NC(=S)N2CCN(c3ccccn3)CC2)cc1 | -3% | nt | ? | nt | 5% | -21%[46.1 µM] | 11% | 1%
O=C(NCCO)c1cc2c(s1)CCC2 | 27% | 3% | ? | 6.5% | 0% | 23% | -12% | 0%
Cc1cc(C)cc(OCCn2c(CCNC(=O)C3CCCCC3)nc3ccccc32)c1 | nt | 1% | -2%[46.1 µM] | 1.8µM* | nt | 19%&19%[46.1 µM] | 12% | nt
N#CCCn1cc(C(=O)CN2C(=O)C(=O)N(C3CCCC3)C2=O)c2ccccc21 | -15% | nt | 11% | nt | -2% | 1%[46.1 µM] | -20% | nt
CCN1CCN(c2ccc(NC(=O)c3ccc4c(c3)[nH]c(=O)n4Cc3ccc(F)cc3)cc2)CC1 | -7% | 2% | ? | -2.0% | 26% | ? | -22% | 28%
O=C(Nc1ccc(F)cc1)c1ccc(NC(=O)C2CCCO2)cc1 (centres undefined) | 2% | nt | 18% | nt | 2% | -1%[46.1 µM] | 21% | 5%
COc1cc(OC)cc(-n2c(=O)c3ccccc3n(CC(=O)NCCc3ccc(OC)c(OC)c3)c2=O)c1 | nt | -6% | -4%[46.1 µM] | -0.9% | nt | -29%[46.1 µM] | -21% | nt
